Polio RdRp inh – poliovirus RNA polymerase inhibition; poliovirus polymerase elongation, fluorescence polarization; stronger effect = lower value; P03300; % elongation, % (compound at 16.7 µg/mL); hit rate 0.66% among 150,000; AID 588519; in the data active means % elongation below about 90%; further: some results filed as inactive read as strong as hits
Mtb MbtI inh – inhibitors of Mycobacterium tuberculosis siderophore enzyme MbtI | hit rate 0.89% among 100,000 | purified MbtI enzyme, fluorescence intensity read-out | P9WFX0 | AID 493033 | inhibition, %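 (about 17 µg/mL by stock and volumes)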;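 active means above 50% in both replicates, above 80% if mildly self-fluorescent; inactive means the rest, strongly fluorescent compounds included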;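 further: 0% = mean of negative and 100% = mean of positive controls; one replicate is shown; some compounds called inactive have numbers as strong as hits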
Target sequence (P9WFX0 whole entry, looked up): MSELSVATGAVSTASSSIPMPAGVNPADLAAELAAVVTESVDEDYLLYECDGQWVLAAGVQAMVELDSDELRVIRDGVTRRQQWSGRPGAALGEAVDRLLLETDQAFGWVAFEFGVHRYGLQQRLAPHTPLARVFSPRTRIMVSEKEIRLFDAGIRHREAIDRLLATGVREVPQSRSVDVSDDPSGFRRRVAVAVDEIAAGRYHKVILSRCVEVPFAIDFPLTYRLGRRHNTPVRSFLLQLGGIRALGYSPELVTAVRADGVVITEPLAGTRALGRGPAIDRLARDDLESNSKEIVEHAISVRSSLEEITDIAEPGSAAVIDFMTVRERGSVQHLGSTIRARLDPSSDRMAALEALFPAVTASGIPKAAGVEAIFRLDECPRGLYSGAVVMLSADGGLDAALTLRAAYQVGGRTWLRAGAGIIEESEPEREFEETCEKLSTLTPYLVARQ
Mtb MenB inh – blocks the Mycobacterium tuberculosis MenB enzyme. P9WNP5. MenB enzyme assay, absorbance read-out; some hits fall short of the stated cut. inhibition, %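 (about 12 µg/mL by stock and volumes)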. hit rate 0.43% among 100,000;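 active means mean of two replicates above 30%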;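 further: 0% = no compound and 100% = wells with inactive enzyme; the first replicate is given; strong numbers were not always called active; inactives centre near -10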
Target sequence (P9WNP5 whole entry, looked up): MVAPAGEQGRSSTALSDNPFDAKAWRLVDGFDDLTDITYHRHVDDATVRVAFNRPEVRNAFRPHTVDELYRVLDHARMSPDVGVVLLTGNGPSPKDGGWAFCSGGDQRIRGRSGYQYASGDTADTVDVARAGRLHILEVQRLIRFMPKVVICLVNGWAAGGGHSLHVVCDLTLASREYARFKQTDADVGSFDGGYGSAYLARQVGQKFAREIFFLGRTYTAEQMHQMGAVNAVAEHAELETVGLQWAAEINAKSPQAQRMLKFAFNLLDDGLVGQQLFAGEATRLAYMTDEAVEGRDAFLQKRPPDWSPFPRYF
Polio RdRp inh intensity – second read-out of Polio RdRp inh, no call of its own (marks repeat the call); % elongation; measured here: total intensity read-out; formula for this scale not given here;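 total fluorescence in place of polarization; lower means less elongation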
The depositor's hits bear a star; i = inactive; / = no result given.

SMILES	Polio RdRp inh	Polio RdRp inh intensity	Mtb MbtI inh	Mtb MenB inh
Cc1ccc(-n2c(C)cc(-c3csc(NC(=O)C(C)C)n3)c2C)cc1	109	116	-21	-10
CN(c1ccccc1)S(=O)(=O)c1ccc(C(=O)NC2=NCCS2)cc1	97	100	-1	-16
Cc1ccc(Cc2nnc(C(=O)NCC3CCCO3)o2)cc1 (configuration not stated)	100	103	-2	-20
CC1CC(C)CN(C(=O)Nc2ccc(F)cc2)C1 (configuration not stated)	101	104	-7	6
COc1ccc(C2C3=C(Nc4[nH]c(=O)[nH]c(=O)c42)c2ccccc2C3=O)cc1 (configuration not stated)	99	99	2	-39
Cc1nnc(SC(C)C(N)=O)n1Cc1ccccc1 (configuration not stated)	99	103	-1	7
COC(=O)c1c(C(=O)OC)c2n(c1C)CSC2	108	113	-6	-4
O=C(Nc1ccc(S(=O)(=O)Nc2ccccn2)cc1)c1cc2ccccc2o1	106	101	i	-14
CCN(CC)c1ccc(C(=O)OCc2nc3ccccc3c(=O)[nH]2)cc1	102	107	-26	-6
CCn1c(C(=O)N2CCC(C(=O)NCc3ccccc3OC)CC2)cc2sccc21	102	100	5	-5
Cc1ccc(S(=O)(=O)NC(=O)N2CCCCCC2)cc1	107	103	-1	-9
Cc1cc(-n2nc3ccccc3n2)c2oc(SCc3nnc(-c4ccccc4)o3)nc2c1	101	100	21	-5
S=C(NCCc1ccccc1)NNC1=NCCCCC1	101	104	22	-40
CC(NC(=O)CSc1nnc2ccccn12)c1ccc2c(c1)OCCO2 (configuration not stated)	103	108	1	2
CC(C)(C)NC(=S)NC1CC1	107	110	-4	-12
CCn1c(CN(C)Cc2cccc(F)c2)nc2cc(S(=O)(=O)N(C)C)ccc21	106	111	-13	-19
COC(=O)C(CC(=O)c1ccc(Br)cc1)(Cc1ccc(Br)cc1)C(=O)OC	107	106	/	-35
N/C(=N\O)c1cnn2c(C(F)(F)F)cc(C(F)(F)F)nc12	99	99	7	-15
Cc1ccc(C)c2[nH]c(=O)c(CCNC(=O)C3CCCC3)cc12	100	102	-4	16
OC(CN1CCC(Cc2ccccc2)CC1)c1ccccc1 (configuration not stated)	104	98	2	-20
O=C(/C=C/c1ccccc1)NC(O)C(=O)c1ccccc1 (configuration not stated)	100	102	11	-11
CN(Cc1nc2ccccc2n1C)S(=O)(=O)c1ccc(Cl)cc1	101	100	-2	-22
Nn1c(-c2ccccc2)cn2c(cc3sccc32)c1=S	103	104	19	-41
OC(CSc1cccc2cccnc12)Cn1c2ccccc2c2ccccc21 (configuration not stated)	104	109	94	-42
Cc1ccc(C)c(N2N=C(C(=O)OCC(=O)NCc3ccco3)CCC2=O)c1	103	108	-12	-7
Cc1nn(CCC(=O)NCc2ccco2)c(C)c1Cl	101	101	6	16
Cc1nn2cnnc2c(C)c1CCC(=O)NC1CCCCC1	102	103	129	-11
CN1CCS/C1=C\C=C1/SC(=S)N(c2ccccc2)C1=O	125	134	-6	12
O=C(O)c1cnn(-c2ccccc2)c1-n1cccc1CNCc1ccc(Cl)cc1	99	101	-15	0
O=C(CC(c1ccccc1)c1ccccc1)Nc1nn[nH]n1	94	103	-2	/

25 of the compounds above, with bars between the fields:
Structure | Polio RdRp inh | Polio RdRp inh intensity | Mtb MbtI inh | Mtb MenB inh
Cc1nnc(SC(C)C(N)=O)n1Cc1ccccc1 (configuration not stated) | 99 | 103 | -1 | 7
COC(=O)c1c(C(=O)OC)c2n(c1C)CSC2 | 108 | 113 | -6 | -4
O=C(Nc1ccc(S(=O)(=O)Nc2ccccn2)cc1)c1cc2ccccc2o1 | 106 | 101 | i | -14
CCN(CC)c1ccc(C(=O)OCc2nc3ccccc3c(=O)[nH]2)cc1 | 102 | 107 | -26 | -6
CCn1c(C(=O)N2CCC(C(=O)NCc3ccccc3OC)CC2)cc2sccc21 | 102 | 100 | 5 | -5
Cc1ccc(S(=O)(=O)NC(=O)N2CCCCCC2)cc1 | 107 | 103 | -1 | -9
Cc1cc(-n2nc3ccccc3n2)c2oc(SCc3nnc(-c4ccccc4)o3)nc2c1 | 101 | 100 | 21 | -5
S=C(NCCc1ccccc1)NNC1=NCCCCC1 | 101 | 104 | 22 | -40
CC(NC(=O)CSc1nnc2ccccn12)c1ccc2c(c1)OCCO2 (configuration not stated) | 103 | 108 | 1 | 2
CC(C)(C)NC(=S)NC1CC1 | 107 | 110 | -4 | -12
CCn1c(CN(C)Cc2cccc(F)c2)nc2cc(S(=O)(=O)N(C)C)ccc21 | 106 | 111 | -13 | -19
COC(=O)C(CC(=O)c1ccc(Br)cc1)(Cc1ccc(Br)cc1)C(=O)OC | 107 | 106 | / | -35
N/C(=N\O)c1cnn2c(C(F)(F)F)cc(C(F)(F)F)nc12 | 99 | 99 | 7 | -15
Cc1ccc(C)c2[nH]c(=O)c(CCNC(=O)C3CCCC3)cc12 | 100 | 102 | -4 | 16
OC(CN1CCC(Cc2ccccc2)CC1)c1ccccc1 (configuration not stated) | 104 | 98 | 2 | -20
O=C(/C=C/c1ccccc1)NC(O)C(=O)c1ccccc1 (configuration not stated) | 100 | 102 | 11 | -11
CN(Cc1nc2ccccc2n1C)S(=O)(=O)c1ccc(Cl)cc1 | 101 | 100 | -2 | -22
Nn1c(-c2ccccc2)cn2c(cc3sccc32)c1=S | 103 | 104 | 19 | -41
OC(CSc1cccc2cccnc12)Cn1c2ccccc2c2ccccc21 (configuration not stated) | 104 | 109 | 94 | -42
Cc1ccc(C)c(N2N=C(C(=O)OCC(=O)NCc3ccco3)CCC2=O)c1 | 103 | 108 | -12 | -7
Cc1nn(CCC(=O)NCc2ccco2)c(C)c1Cl | 101 | 101 | 6 | 16
Cc1nn2cnnc2c(C)c1CCC(=O)NC1CCCCC1 | 102 | 103 | 129 | -11
CN1CCS/C1=C\C=C1/SC(=S)N(c2ccccc2)C1=O | 125 | 134 | -6 | 12
O=C(O)c1cnn(-c2ccccc2)c1-n1cccc1CNCc1ccc(Cl)cc1 | 99 | 101 | -15 | 0
O=C(CC(c1ccccc1)c1ccccc1)Nc1nn[nH]n1 | 94 | 103 | -2 | /

(further entries)
SMILES	Polio RdRp inh	Polio RdRp inh intensity	Mtb MbtI inh	Mtb MenB inh
O=C(NCCCN1CCCC1=O)c1cc(-c2ccccc2)nc2ccccc12	103	105	-56	-4
CCN(CC)S(=O)(=O)c1ccc(Cl)c(C(=O)NCC(C)C)c1	101	104	-9	/
Cc1nn(-c2ccccc2)c2nc(-c3ccccc3)cc(C(=O)NC3=NCCS3)c12	102	94	-6	-31
C/C(=C/C(=O)C(F)(F)F)N1CCN(c2ccccc2F)CC1	108	108	5	5
CC(NC(=O)CSc1ccc(S(=O)(=O)N(C)C)cn1)c1ccc2c(c1)OCCO2 (configuration not stated)	106	106	17	12
CCC(=O)Nc1n[nH]c(-c2ccncc2)n1	103	104	-5	-37
COc1ccc(C(=O)Cn2nc(CNc3ccc(Br)cc3)[n+]3c2CCCCC3)cc1	103	107	-5	/
COC(=O)C1=C(C)N(Cc2ccc(OC)cc2)C(=O)/C1=C\c1ccco1	104	99	4	-24
Cn1c(SCCC(=O)O)nc2ccccc21	103	102	-9	-21
Cc1cc(N2CCN(c3ccccc3)CC2)n2c(nc3ccccc32)c1C#N	100	101	5	9
Cc1cccn2c(=O)c3cc(C#N)c(=NC(=O)c4ccccc4)n(Cc4ccco4)c3nc12	105	164	38	-26
CC1CN(S(=O)(=O)c2ccc(NC(=O)CCCCCN3C(=O)c4ccccc4C3=O)cc2)CC(C)O1 (configuration not stated)	104	101	0	-21
CCC(C)c1ccc(S(=O)(=O)NC(C)(C)CC)cc1 (configuration not stated)	101	101	-47	-6
O=C(Nc1cccc2c1CCCC2)N1c2ccccc2Sc2ccccc21	102	105	0	-6
CC1=Nc2ccccc2NC(=O)C1Cc1ccccc1 (configuration not stated)	103	107	/	-23
CCC(=O)OC1C(C)OC(OC2C(C)OC(O[C@H]3[C@@H](CC=O)C[C@@H](C)[C@@H](O)/C=C/C=C/C[C@@H](C)OC(=O)C[C@@H](OC(=O)CC)[C@@H]3OC)C(O)C2N(C)C)CC1(C)O (some centres not stated)	101	101	1	4
CCCSc1nc2c3ccccc3ncn2n1	100	93	-6	-43
CN(C1CCCCC1)S(=O)(=O)c1cc(Br)cc2c1N(C(=O)C1CC1)CC2	100	105	0	-35
Cc1ccc(/C=C/C2=Cc3c(sc(N)c3C#N)C(C)(C)C2)o1	104	209	89*	-42
COC(=O)C1=C(C)NC(C)=C(C(=O)c2ccccc2)C1c1ccc(Br)cc1 (configuration not stated)	98	99	-16	/
CCOC(=O)c1nn(-c2ccc(F)cc2)c(=O)c2c(NC(=O)c3ccc(Br)o3)scc12	102	101	-3	-17
CCN1C(=O)c2ccccc2S(=O)c2ccc(C(=O)NCCc3ccc(C)cc3)cc21 (configuration not stated)	99	100	3	-27
C/C(N)=C(/C#N)C(=O)CSc1nc(N)cc(=O)[nH]1	100	103	5	-8
S=c1[nH]ncn1NCc1cccc(Br)c1	96	101	22	7
N#CC1=C(S)N(c2ccccc2)C2(CCCCC2)NC1=O	103	99	13	-35
COc1ccc2[nH]c(=O)c(CN(CCCN3CCOCC3)C(=O)Nc3ccccc3)cc2c1	99	103	1	24
Cc1cc2c(cc1S(=O)(=O)N(CC(C)C)CC(C)C)OCC(=O)N2	98	101	17	2
NCCc1cccc(Cl)c1	106	113	-17	-6
O=c1[nH]c(CSc2nnc(CCCOc3ccc(Cl)cc3Cl)o2)nc2ccccc12	102	102	-26	4
CC1Sc2cc(S(=O)(=O)N3CCc4ccccc4C3)ccc2NC1=O (configuration not stated)	103	102	-7	-28
CCCN(C(=O)CC)c1nc(-c2ccccc2)cs1	100	100	-8	6
O=C1CCN(Cc2ccccc2)C(=O)N1c1ccc2c(c1)CCO2	100	101	1	7
CC1c2ccsc2CCN1C(=O)c1ccc(C(F)(F)F)cc1 (configuration not stated)	111	114	-14	2
Cc1cc(=O)cc(C(F)(F)F)o1	101	104	-4	/
CCN(CC)c1ccc(C(=O)OCC(=O)N(C)Cc2ccccc2)cc1	102	106	-18	/
Cc1cn(C2CCC(CO)O2)c(=O)[nH]c1=O (configuration not stated)	104	109	2	4
O=C(Cn1cnc2ccccc2c1=O)OCC(=O)N1CCOCC1	99	105	9	8
CCOC(=O)c1cn[nH]c1NC(=S)NCc1ccccc1	101	99	6	4
COc1ccc(N(CN2C(=O)c3ccccc3C2=O)C(=O)C(C)C)cc1	97	108	-4	-10
FC(F)(F)c1cccc(-c2noc(-c3ccccn3)n2)c1	103	103	-16	-23
COC(=O)C1=C(C)N(C(C)C)C(=O)/C1=C\c1ccc(C(=O)O)cc1	102	103	8	-76
CCN(CC)c1nc2ccccc2n2cnnc12	102	107	8	-14
CCC1(C)NC(=O)N(NC(=O)CCc2c[nH]c3ccccc23)C1=O (configuration not stated)	106	97	0	-20
N#Cc1c(-c2ccccc2)nc(SCC(=O)N2CCCc3ccccc32)[nH]c1=O	94	102	/	2
Cc1cc(C)cc(OCc2ccc(C(=O)O)o2)c1	97	102	0	-7
NCCC12CC3CC(C1)CC(C(=O)O)(C3)C2	103	97	5	-29
O=C(CSc1nc2ccccc2nc1N1CCCC1)Nc1ccc(F)cc1	102	103	1	-10
Cc1ccc(C2=NS(=O)(=O)N(C)C(C(=O)N3CCc4ccccc4C3)=C2)cc1	105	103	12	-15
Cc1nn(-c2ccccc2)c2sc(C(=O)OCC#N)cc12	110	109	-4	-7
Cc1nnc(N2C(=N)S/C(=C\c3ccccc3Cl)C2=O)s1	100	108	-223	-3
COC(=O)Cn1c(CCS(=O)(=O)c2ccc(Cl)cc2)nc2ccccc21	103	100	-11	-20
C[C@]12CCC3C(CC[C@]4(O)C[C@@H](O)CC[C@]34C=O)[C@@]1(O)CCC2C1=CC(=O)OC1 (some centres not stated)	101	103	-7	0
COc1ccc(Br)cc1CNC(=O)C1CCN(C(=O)c2sccc2-n2cccc2)CC1	103	101	-4	-14
NC1=NC(c2cccc(Oc3ccccc3)c2)n2c(nc3ccccc32)N1 (configuration not stated)	100	105	-3	-16
Cc1ccc(SCCC(=O)Nc2c(C)n(C)n(-c3ccccc3)c2=O)cc1	103	96	-9	-25
CCOC(=O)c1ccc(NC(=O)CCC(C)C(=O)O)cc1 (configuration not stated)	104	99	1	9
Cc1ccc(S(=O)(=O)N2CCN(CC(=O)N3N=C4/C(=C/c5cccs5)CCCC4C3c3cccs3)CC2)cc1 (configuration not stated)	100	101	i	11
COC(=O)c1cc(S(=O)(=O)NCc2cccs2)c[nH]1	104	102	0	-8
NC(=S)Nn1c(CCC(=O)O)ccc1-c1cccs1	99	105	0	4
O=C(c1cnc(NS(=O)(=O)c2ccccc2)nc1)N1CCOCC1	103	104	2	-1
Additional records.
SMILES	Polio RdRp inh	Polio RdRp inh intensity	Mtb MbtI inh	Mtb MenB inh
CN1CCC2(N3CCOCC3)C(C1)N=NN2c1cc(C(F)(F)F)cc(C(F)(F)F)c1 (configuration not stated)	105	107	-10	-16
N#Cc1cccc(OC(=O)c2ccccc2)c1	99	102	-2	-13
O=C1S/C(=C/c2ccccc2F)C(=O)N1CN1CCCCC1	100	103	1	15
O=C(NCCC1=CCCCC1)c1cc2cc(Cl)ccc2oc1=O	106	103	/	-2

Compound activity deposited in PubChem by ICCB-Longwood Screening Facility, Harvard Medical School.
